# AID923: qHTS Assay for Allosteric/Competitive Inhibitors of Caspase-1: Spectroscopic Profiling in AFC Spectral Region; compound fluorescence, AFC spectral region (405/520 nm); almost no hit is shown here; Potency, µM (top dose mostly 57.5 µM), inactives show at the highest dose fluorescence increase, hits mostly activators; actives 1.1% (n = 75,000); active = well fitted activation curve with a large enough effect; inconclusive = small, poorly fitted or top-dose-only effect;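 also: potency is read from the fitted curve at half-maximal effect; 0% is about no effect; scaled to a free AFC standard on each plate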
#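 Baseline compound fluorescence (AFC region, 405 nm ex/520 nm em) taken from the intercept of kinetic reads with 50 nM caspase-1 and 5 uM Ac-WEHD-AFC; normalized to an on-plate AFC standard curve; compounds titrated up to 57 uM.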
# TSHR ag: TSH receptor (human) agonism. HEK293-CNG-TSHR cells (CNG channel as cAMP sensor), membrane potential dye, cAMP. AID 926. Potency, µM (titrated, usually from 57.1 µM), without a hit: at the top dose activation, most hits filed as activators. P16473. actives 0.48% (n = 73,000); active = well fitted activation curve of enough size with the parental cells flat; inconclusive = any curve in the parental cells; inactive = parental cells flat and receptor cells flat or falling; also: potency is read from the fitted curve at half-maximal effect; % of control where 0% means no effect; weak receptor curves with flat parental cells got no call and are not listed
# Target sequence (P16473 whole entry, looked up): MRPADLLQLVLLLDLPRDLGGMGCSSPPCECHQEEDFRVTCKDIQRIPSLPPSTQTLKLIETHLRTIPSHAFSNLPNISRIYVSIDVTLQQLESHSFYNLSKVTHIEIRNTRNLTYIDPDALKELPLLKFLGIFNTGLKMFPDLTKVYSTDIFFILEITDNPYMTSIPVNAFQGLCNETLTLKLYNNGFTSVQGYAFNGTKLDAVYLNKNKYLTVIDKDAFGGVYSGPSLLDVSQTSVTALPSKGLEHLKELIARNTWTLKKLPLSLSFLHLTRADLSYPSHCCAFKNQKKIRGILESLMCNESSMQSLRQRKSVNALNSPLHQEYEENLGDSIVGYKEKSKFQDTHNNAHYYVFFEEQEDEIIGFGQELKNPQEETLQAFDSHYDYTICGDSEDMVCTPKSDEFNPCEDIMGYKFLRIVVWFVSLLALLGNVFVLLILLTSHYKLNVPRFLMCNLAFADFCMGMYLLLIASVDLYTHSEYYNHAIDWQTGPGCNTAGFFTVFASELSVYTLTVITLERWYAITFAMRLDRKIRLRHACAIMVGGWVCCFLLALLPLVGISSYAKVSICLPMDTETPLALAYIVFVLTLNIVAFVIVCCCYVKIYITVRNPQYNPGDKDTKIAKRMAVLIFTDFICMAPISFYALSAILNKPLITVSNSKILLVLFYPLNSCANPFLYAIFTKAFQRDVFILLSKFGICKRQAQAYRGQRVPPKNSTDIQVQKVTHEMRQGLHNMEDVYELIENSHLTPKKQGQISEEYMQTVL
#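 HEK 293 cells stably expressing TSHR and a cAMP-gated CNG channel; parental CNG-only cells as counterscreen. Cells preloaded 60 min with membrane potential dye plus 100 uM RO 20-1724, then compound 30 min; fluorescence read at 590 nm.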
# A488 autofl: A488 region autofluorescence; compound autofluorescence, A488 spectral region, dye equivalency; hits give high values; max dye equivalency, M; actives 0.1% (n = 59,000); AID 591; active = above 10 nM dye equivalent; inconclusive = 1 to 10 nM; inactive = 1 nM or less; about half of its hits are not listed in these tables;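 also: highest value over a series up to 38 µM; compound alone in buffer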
#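 Autofluorescence read at ex 480/em 540 nm after 15 min RT in 100 mM Tris pH 8.0; compound signal normalized to A488 standard series on each plate, reported as dye-equivalent concentration at each test concentration.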
# Resorufin fluor: compound fluoresces in the resorufin spectral region | actives 0.04% (n = 59,000) | max dye-equivalent concentration, M | Compound fluorescence, resorufin region 547/598 nm, buffer; hits give high values | AID 588; active = above 10 nM dye equivalent; inconclusive = 1 to 10 nM; inactive = 1 nM or less; a few of its hits are not listed in these tables; also: highest value over a series up to 38 µM
#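 Tris 100 mM pH 8.0; compound added, 15 min RT; CCD imager read, ex 547 nm/em 598 nm; signal normalized to resorufin standard curve (six concentrations per plate) as dye-equivalent concentration.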
# A647 fluor: compound autofluorescence in A647 spectral region; Compound fluorescence, A647 channel (570/671 nm), Tris buffer; max dye-equivalent concentration, M; 59,000 tested, under 10 active; AID 592; active means above 1 µM dye equivalent; inconclusive means 0.1 to 1 µM; inactive means 0.1 µM or less;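 also: values scaled relative to a standard on each plate; highest value over a series up to 38 µM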
#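 Compounds pinned into 100 mM Tris pH 8.0, 15 min at room temperature, then read with 570 nm excitation/671 nm emission filters. Fluorescence normalized to an on-plate six-point Alexa 647 standard curve, giving dye-equivalent concentration per compound concentration.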
# Numbers without * were called inactive; i = inactive; ? = inconclusive; / = no result given; & = joins results of further samples; [ ] = dose if it differs, or a comment. An excerpt; count on the stated rates, not on these rows.
cpd	mol	AID923	TSHR ag	A488 autofl	Resorufin fluor	A647 fluor
1	O=C(Nc1ccc2c(c1)OCCO2)c1ccc(S(=O)(=O)N2CCCCC2)cc1	-0.9%	6.7%	i	i	8.9e-09
2	Cc1c(NC(=O)CSc2nc3ccccc3[nH]2)c(=O)n(-c2ccccc2)n1C	1.7%	-2.3%	/	/	/
3	Cc1noc(C)c1COC(=O)CCc1nc2ccccc2c(=O)[nH]1	0.9%	5.1%	i	i	1e-09
4	CC(C)(C)OC(=O)NCCc1nnc(SCC(N)=O)o1	-0.9%	-0.2%	i	i	3.3e-09
5	Cc1nc(NC(=O)c2oc3ccccc3c2C)sc1C(=O)N(C)C	-1.9%	-1.3%	i	i	7.8e-09
6	COc1ccccc1NC(=O)C1=C(C)Nc2nnnn2C1c1cccc(C)c1 (stereo not drawn)	-1.2%	-0.3%	/	/	/
7	COc1ccc(Cl)cc1NC(=O)CSc1nnc(COc2ccccc2)n1C	-0.9%	?	i	i	2e-09
8	O=C(NCCN1CCOCC1)c1nn2c(c1Cl)NC(c1ccccc1)CC2C(F)(F)F (stereo not drawn)	0.7%	4.5%	i	i	6.7e-09
9	CCOC(=O)c1[nH]c(=O)c2ccccc2c1O	1.9%	2.6%	i	i	1e-09
10	Cc1ccc(NC(=O)c2cc(S(=O)(=O)N3CCOCC3)ccc2F)c(C)c1	0.2%	1.1%	i	i	4.54e-08
11	CCOC(=O)c1cnn2c(N)c(C#N)nnc12	-0.1%	-5.0%	i	i	5.89e-08
12	Nc1nc(-c2ccc(Cl)c(Cl)c2)c(-c2ccncc2)s1	12.8%	16.8%	/	/	/
13	Cc1cc(N2CCN(c3ccccc3F)CC2)nc2cc(O)ccc12	1.6%	6.0%	i	i	2.46e-08
14	C[N+]1(C)CCC(OC(=O)C(c2ccccc2)c2ccccc2)CC1	-0.6%&-2.5%	-2.3%&2.8%	i	i	4e-09
15	O=S(=O)(c1cccc(S(=O)(=O)N2CCCC2)c1)c1cccc(S(=O)(=O)N2CCCC2)c1	0.8%	7.8%	/	/	/
16	COCCn1c(Cc2ccccc2)nnc1SCC(=O)NC(C)C	0.6%	/	i	i	3.36e-08
17	COc1ncc2nc(-c3cn(C)c4ccccc34)c(=O)n(CCC#N)c2n1	8.8%	1.7%	i	i	1e-09
18	Cc1cc(C)c2c(=O)[nH]c(SCC(=O)Nc3ccccc3)nc2n1	-0.2%	/	i	i	1e-09
19	O=C(CCCn1c(=O)[nH]c2cc(Cl)ccc2c1=O)NCC1CCCO1 (stereo not drawn)	-0.8%	-4.0%[11.4 µM]	i	i	1e-09
20	CCOC(=O)c1cnc2ccc(Br)cc2c1NCC(C)O (stereo not drawn)	0.7%	-0.6%	/	/	/
21	O=c1c2ccccc2nc(SCc2nnc(-c3ccccc3Br)o2)n1Cc1ccco1	2.2%	?	i	i	1e-09
22	O=C(NCCN1CCOCC1)c1ccc2c(c1)N(Cc1ccccc1)C(=O)CS2	0.1%	8.8%	i	i	2.26e-08
23	CCN(CC)S(=O)(=O)c1cc(-c2nnc(-c3ccc(Br)cc3)o2)ccc1Cl	2.5%	?	/	/	/
24	Cc1cccc(NC(=O)CSc2nnc(-c3ccc(S(=O)(=O)N4CCCC4)cc3)o2)c1	8.0%	1.6%	i	i	1e-09
25	O=c1[nH]cnc2nc3n(c12)CCCCC3	0.5%	-3.3%	i	i	3.94e-08
26	CCOC(=O)c1cnc2c(-c3ccccc3)cnn2c1N	-2.4%	-0.1%	i	i	1.14e-08
27	CCCN1C2=NCCN2c2ccccc21	-1.1%	3.9%	i	i	3.06e-08
28	CCCn1c(-c2ccc(OC)cc2)nc2ccccc21	-0.4%	?	/	/	/
29	Cn1nnnc1SCC(=O)Nc1ccc(Oc2ccc(Cl)cc2)cc1	-0.7%	?	i	i	2e-09
30	CCOC(=O)c1ccccc1NC(=O)CSc1nc2c(c(=O)n(C)c(=O)n2C)n1C	1.3%	?	i	i	3.89e-08

# Single values from the results shown:
# Reading of compound 7 in A647 fluor: 2e-09
# Reading of compound 23 in AID923: 2.5%
# Reading of compound 29 in A647 fluor: 2e-09
# Reading of compound 24 in TSHR ag: 1.6%

# Next section
cpd	mol	AID923	TSHR ag	A488 autofl	Resorufin fluor	A647 fluor
31	COc1ccc(C(=O)Nc2cc(OC)ccc2OC)cc1	0.1%	12.4%	i	i	4.64e-08
32	Cn1c(=O)c2c(nc(SCCCC#N)n2Cc2c(F)cccc2Cl)n(C)c1=O	1.0%	26.7%	/	/	/
33	Cc1ccnc(NC(=O)C23CC4CC(CC(C4)C2)C3)c1	-1.5%	2.1%	i	i	4e-09
34	Cn1ncc2c(NCCc3ccccc3)nc(Cl)nc21	-2.4%[11.5 µM]	1.1%[11.4 µM]	i	i	1e-09
35	CCc1c(O)nc(SCC(=O)Nc2ccc(OC)cc2)n(C2CCCCC2)c1=O	-1.0%	-4.1%	i	i	1e-09
36	COc1ccc(C(c2nnnn2Cc2cccs2)N2CCN(c3ccccc3F)CC2)cc1OC (stereo not drawn)	0.2%	?	i	i	2.12e-08
37	O=C(CCCOc1ccccc1)Nc1nccs1	0.8%	-8.9%	i	i	2.65e-08
38	O=C1CC(c2ccc(F)cc2)Cc2nc(N3CCOCC3)ncc21 (stereo not drawn)	-0.6%	17.4%	i	i	1e-09
39	CCOC(=O)CSc1nnnn1-c1cccc2ccccc12	-1.7%	10.7%	i	i	5.4e-09
40	CN(C)c1nc2n(c(=S)n1)CCS2	/	/	i	i	9.86e-08
41	CC(C(=O)NCC1CCCO1)N(C(=O)c1snc(C(N)=O)c1N)c1ccccc1 (stereo not drawn)	5.0%	-1.8%	i	i	2.7e-09
42	CCNc1nc(Oc2ccc(C(=O)OC)cc2)nc(N(C)C)n1	1.7%	3.0%	i	i	1e-09
43	OCCNc1nc2ccccc2n1-c1ccccc1	-1.8%	?	i	i	1.88e-08
44	CC(C)C(=O)Nc1cccc(C(=O)NCc2ccc3c(c2)OCO3)c1	-0.8%	4.5%	i	i	1.45e-08
45	CCOc1ccc2nc(NC(=O)CN3CCC(n4nnc5cc(F)ccc54)CC3)sc2c1	1.8%	23.7%	i	i	6.5e-09
46	O=C(CCn1cnc2ccccc2c1=O)Nc1ccc(S(=O)(=O)N2CCCC2)cc1	-2.6%	-5.0%	i	i	2.4e-09
47	CC(=O)OCCNC(=O)Cn1cnc2c1c(=O)n(C)c(=O)n2C	-0.6%	5.6%	i	i	9.2e-09
48	CC(C)(C)C1CCc2c(sc(N)c2C(N)=O)C1 (stereo not drawn)	1.3%	1.0%	i	i	4.5e-09
49	Cc1ccc2oc(-c3ccccc3C(=O)O)cc(=O)c2c1	0.4%	-8.6%	i	i	1e-09
50	COCCNC(=O)c1cc(-c2ccccc2OC)on1	-0.5%	7.6%	/	/	/
51	CC(C)NC(=O)CSc1nnc2sc3ccccc3n12	-0.2%	-1.3%	i	i	2.77e-08
52	CC12CCCCC1(O)[N+](=O)C1=C(CCCC1)N2[O-] (stereo not drawn)	-0.4%	2.7%	i	i	3.08e-08
53	CCOc1ccccc1C(=O)NCC(=O)OCC(=O)N1C(C)CCCC1C (stereo not drawn)	-0.8%	-7.8%	i	i	3.5e-09
54	Cn1cc(-c2nc3cnc(N4CCNCC4)nc3n(-c3ccccc3)c2=O)c2ccccc21	20.0%	8.9%	i	i	1e-09
55	O=C(Nc1nnc(C2CCCC2)s1)C1CCN(S(=O)(=O)c2ccc(Cl)cc2)CC1	-1.2%	-10.1%	i	i	1.23e-08
56	COc1ccccc1-n1c(N)c(C(=O)NCC2CCCO2)c2nc3ccccc3nc21 (stereo not drawn)	/	/	i	i	5.4e-09
57	Cc1ccc(-n2c(SCc3cc(=O)n4ccsc4n3)nnc2-c2cccnc2)c(C)c1	-1.0%	-0.6%	i	i	1e-09
58	CC1=C2[C@H](/C=C(\C)C(=O)O)CC[C@@H](C)[C@H]2CC1	-1.7%	?	/	/	/
59	CCc1nnc(NC(=O)c2ccc(S(=O)(=O)NCC(C)C)cc2)s1	-1.0%	-3.8%	i	i	4.6e-09
60	CCOC(=O)OCC1C=C[C@H](c2cc(-c3ccccc3)ccc2O)C(c2ccc(C(C)=O)cc2)O1 (stereo partly drawn)	-1.2%[11.5 µM]	-0.7%[11.4 µM]	/	/	/

# Exported with two lines to a compound: entries from further up
# Under each structure – AID923, TSHR ag, A488 autofl, Resorufin fluor, A647 fluor
38	O=C1CC(c2ccc(F)cc2)Cc2nc(N3CCOCC3)ncc21 (stereo not drawn)
    -0.6%, 17.4%, i, i, 1e-09
39	CCOC(=O)CSc1nnnn1-c1cccc2ccccc12
    -1.7%, 10.7%, i, i, 5.4e-09
40	CN(C)c1nc2n(c(=S)n1)CCS2
    /, /, i, i, 9.86e-08

# Carrying on:
cpd	mol	AID923	TSHR ag	A488 autofl	Resorufin fluor	A647 fluor
61	CCn1cc(Br)c(C(=O)Nc2ccc(OC)cc2)n1	0.2%	-2.0%	i	i	1e-09
62	O=S(=O)(NC1CCCCC1NCc1ccco1)c1ccccc1 (stereo not drawn)	-2.5%	14.0%[11.4 µM]	/	/	/
63	CC1(C)COCN1S(=O)(=O)c1ccc(C(=O)Nc2nnc(-c3ccc(Cl)s3)o2)cc1	0.6%	4.0%	i	i	2.9e-09
64	O=c1cc(CO)oc(C(Nc2ccccn2)c2ccc(C(F)(F)F)cc2)c1O (stereo not drawn)	1.7%	-5.2%	i	i	5.9e-09
65	COc1cccc(C(=O)Nc2ccc(-c3nnc(-c4ccco4)o3)cc2)c1	/	/	i	i	3.48e-08
66	COCCCNC(=O)CN(C1CCCCC1)S(=O)(=O)c1ccc(C)cc1	0.6%	-0.5%[11.4 µM]	/	/	/
67	CC1(C)[C@@H](O)CC[C@@]2(C)[C@H]1CC[C@]1(C)[C@H]2C(=O)C=C2[C@@H]3C[C@@](C)(C(=O)O)CC[C@]3(C)CC[C@@]21C	/	?	i	i	2.99e-08
68	Cn1nnnc1SCC(=O)N1CCc2ccccc2C1	1.9%	-0.8%	i	i	1.2e-09
69	Cc1nnc(SCc2ccc(Cl)cc2Cl)[nH]c1=O	-0.2%	?	/	/	/
70	Cc1ccc(-c2cc(C(=O)NCc3cccnc3)no2)cc1	0.3%	-7.1%	i	i	1e-09
71	COc1ccc(C2C(C(=O)NCCN3CCOCC3)c3ccccc3C(=O)N2C2CCCCC2)cc1 (stereo not drawn)	0.6%	11.3%	i	i	1e-09
72	CCOc1cc(-c2noc(-c3ccncc3)n2)cc(Br)c1OC	-1.5%	20.0%	i	i	9e-09
73	COc1ccc(NC(C)=O)cc1NC(=O)CSc1nnc(-c2ccncc2)n1C	0.5%	0.8%[11.4 µM]	i	i	1e-09
74	O=S1(=O)CCC(NCC2CCCO2)C1 (stereo not drawn)	1.0%	1.0%	i	i	5.6e-09
75	COc1cccc(C2C(C(N)=O)=C(C)Nc3nc(CCCO)nn32)c1OC (stereo not drawn)	-0.2%	-10.1%	/	/	/
76	O=C(CC1OC(=O)c2ccccc21)NC1CCCCC1 (stereo not drawn)	-1.1%	5.1%	i	i	4.37e-08
77	O=C(c1ccccc1)N1CCCOC1c1ccccc1 (stereo not drawn)	0.9%	5.2%	i	i	1.24e-08
78	O=C(c1cc2c(=O)oc3ccccc3c2s1)N1CCOCC1	-0.6%	-1.0%[11.4 µM]	i	i	5.6e-09
79	O=S(=O)(O)c1ccc2cc(N=Nc3cc(S(=O)(=O)O)c4cccnc4c3O)ccc2c1	-0.2%[11.5 µM]	-2.9%[11.4 µM]	i	i	3e-09
80	CCN(CC)CCCNC(=O)Cn1ncc2c(=O)oc3ccc(C)cc3c21	-1.2%	1.1%	/	/	/
81	CCOC(=O)N1CCN(C(=O)c2ccc3c(c2)sc2nc(-c4ccccc4)cn23)CC1	0.7%	2.8%	/	/	/
82	O=C(NCC(c1cccnc1)N1CCN(c2ccccc2F)CC1)c1cccc(Cl)c1 (stereo not drawn)	0.0%	?	i	i	1e-09

# Screening results (PubChem)
